Bioassay records (PubChem BioAssay)
HSD17B inh = HSD17B dehydrogenase inhibition. Q99714. recombinant HSD17B10, NADH fluorescence kinetic; many of its hits are not listed in these tables. Potency, µM (highest dose often 57.1 µM), for the others: top-dose activity change, negative = inhibition, usual class: inhibitors. 7.6% of 75,000 active. AID 893; active = well fitted inhibition curve with a large enough effect; inconclusive = small, poorly fitted or top-dose-only effect; inactive = no such curve, though single readings can be large or run the other way;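 also: the protocol describes HADH2 (HSD17B10) and not the HSD17B4 of the title; nearly all actives have a fitted effect of over 70% in size; most hits overshoot -100% by far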
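20 nM HADH2, pH 9.0 Tris/Tween; cpd preinc 15 min RT; start w/ 1 mM NAD+ + 90 uM b-hydroxybutyryl-CoA; kinetic fluor ex360/em450 q30s x 4 min; delta last-first.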
* = called active by the depositor; ? = inconclusive; & = joins results of further samples; [ ] = another dose, or the depositor's remark. % is scaled to controls: 0 for no effect and ±100 for the full control effect; potency is read from the fitted curve at half-maximal effect. These rows are one share of the data; count on the stated rates, not on these rows.

SMILES | HSD17B inh
C=CCn1c(SCC(=O)Nc2cc(C)ccc2OC)nnc1-c1ccco1 | 2%
COc1cc(CN2CCN(c3cccc(C)c3C)CC2)cc(Br)c1O | -26%
CC(C)CCCC(C)C1CCC2C3CC[C@H]4CC(=O)CC[C@@]4(C)C3CC[C@@]12C (stereo partly drawn) | -6%
COC(=O)NC1CSCC1OC(=O)CCN1C(=O)c2ccccc2C1=O (stereo not drawn) | 8%
O=S1(=O)C=C(N2CCOCC2)c2ccccc21 | 3%
CCOc1ccc(-n2ccnc2SCC(=O)NCc2ccc3c(c2)OCO3)cc1 | 6%
Nc1nc2c(s1)CC(c1ccccc1)CC2 (stereo not drawn) | -2%
O=C(NCc1ccc(F)cc1)c1cc(-c2cccs2)on1 | -1%
Cc1csc(NC(=O)C2CCN(C(=O)CSc3nnc(C)n3Cc3ccccc3)CC2)n1 | -9%
COC(=O)CSC1=C(C#N)C(c2sccc2C)CC(=O)N1 (stereo not drawn) | 5%
O=C(OCC(=O)N1CCc2ccccc21)c1cccnc1 | 1%
O=C(Nc1cnc2ccccc2c1)C1COc2ccccc2O1 (stereo not drawn) | -3%
O=C1C=CC2(OCCCO2)C(Br)=C1 | 8%[11.4 µM]
Cc1cccc2cc(C#N)c(N3CCN(C)CC3)nc12 | -8%
Cc1nc2sccn2c1-c1nc(-c2cc3ccccc3o2)cs1 | -22%
CC(=O)N1CCN(C(=O)Nc2cccc(C(F)(F)F)c2)CC1 | 0%
O=C(c1ccc(Br)o1)N(c1ccc(Br)cc1)C1C=CS(=O)(=O)C1 (stereo not drawn) | -5%
CCOc1ccc(-c2[nH]ncc2Oc2ccccc2OC)c(O)c1 | -26%
COCCNC(=O)C1(C)C=CC2(CCCCC2)N1C(=O)c1ccccc1 (stereo not drawn) | 4%
Cc1cc(OCC(=O)C(C)(C)C)c2c(C)c(C)c(=O)oc2c1 | ?
O=C(c1ccco1)N1CCN(c2nc3ccccc3c(=O)n2-c2ccccc2)CC1 | ?
O=C(OCCN1C(=O)c2ccccc2C1=O)c1ccc(S(=O)(=O)N2CCCCCC2)cc1 | -4%
CCN(CC)C1CCCCC1NS(=O)(=O)c1ccc(Cl)cc1 (stereo not drawn) | 2%
Cc1cccc(Cn2c(SCC(=O)Nc3ccccc3)nc3c2c(=O)[nH]c(=O)n3C)c1 | 3%
Cc1ccc(O)c(NC(=O)CCC2CCCCC2)c1 | 0%

Additional compounds follow:
SMILES | HSD17B inh
CCC(c1nnnn1CC1CCCO1)N(CCN1CCOCC1)Cc1cc2cc(C)ccc2[nH]c1=O (stereo not drawn) | 25µM*
CC1CCc2cccc3c2N1c1cc(C#N)c(C#N)cc1O3 (stereo not drawn) | -12%
Cc1[nH]c2ccc(S(N)(=O)=O)cc2c1C | -1%
O=C(Cc1cccs1)Nc1nnc(-c2ccncc2)s1 | 13µM*
O=C(Nc1nc(-c2cccs2)cs1)c1cccc(S(=O)(=O)N2CCCCC2)c1 | ?
O=C(CCC(=O)NC1CCN(Cc2ccccc2)CC1)NCc1ccco1 | 8%
CC(=O)c1cccc(S(=O)(=O)N2CCCC(c3nc(-c4ccc(C)o4)no3)C2)c1 (stereo not drawn) | -7%
CCOC(=O)C1CCCN(C(=O)Cn2nc(CC)n3c(cc4sccc43)c2=O)C1 (stereo not drawn) | -5%
O=C(CSc1nnc(COc2ccccc2)n1Cc1ccco1)Nc1ccc2c(c1)OCCO2 | ?
CCCCOC(=O)c1ccc(N2C(=O)CC(N3CCN(C/C=C/c4ccccc4)CC3)C2=O)cc1 (stereo not drawn) | -4%
COc1nc(NCc2cccnc2)nc(OC)n1 | -4%
COc1cc(OC)c(S(=O)(=O)NCc2ccco2)cc1S(=O)(=O)NCc1ccco1 | 2%
N#Cc1cc2nc(O)c(O)nc2cc1[N+](=O)[O-] | 8%&-7%
Cn1c(N)c(C(=O)COC(=O)c2cc(C(F)(F)F)nc3c(C(F)(F)F)cccc23)c(=O)n(C)c1=O | 8%
Cc1cc(C)nc(N2C(=O)CC(C(=O)O)NC2=NCCc2c[nH]c3ccccc23)n1 (stereo not drawn) | 2%
COc1nc(Oc2ccc(=O)n(C)n2)nc(N(C)C)n1 | 4%
Fc1ccc(Nc2nc(N3CCOCC3)c3ccccc3n2)cc1 | -24%
O=C(Nc1ccc2c(c1)OCO2)NC1CCN(Cc2ccccc2)CC1 | -5%
Cc1ccccc1N=C(N)Nc1ccccc1C | 10%
CC(C)(C)C1CCc2onc(C(=O)NCc3ccc(F)cc3)c2C1 (stereo not drawn) | 5%
COc1ccccc1NC(=O)CSC1CC(=O)N(c2ccc3c(c2)OCO3)C1=O (stereo not drawn) | -10%
CCC(C)(C)n1nnnc1C(C(C)C)N1CCN(C)CC1 (stereo not drawn) | 1%
CC1Cn2c(nc3sc4c(c3c2=O)CCC4)N1CCO (stereo not drawn) | 32µM*
O=S(=O)(c1cccs1)N1CCc2ccccc2C1 | 0%
CCn1c(SCc2ccc(C(=O)OC)o2)nc2sc3c(c2c1=O)CCCC3 | 5%

Given as labelled records: entries from further up
O=C(CCC(=O)NC1CCN(Cc2ccccc2)CC1)NCc1ccco1
  HSD17B inh: 8%
CC(=O)c1cccc(S(=O)(=O)N2CCCC(c3nc(-c4ccc(C)o4)no3)C2)c1 (stereo not drawn)
  HSD17B inh: -7%

(list continues)
SMILES | HSD17B inh
COc1ccc(C(CC(=O)O)NC(=O)Cc2ccccc2)cc1 (stereo not drawn) | 4%
O=C(C1=C(O)C(=O)N(CCc2ccccc2)C1c1cccnc1)c1ccco1 (stereo not drawn) | -21%
O=C1CSC(c2ccccn2)N1c1ccccc1 (stereo not drawn) | 10%
C=CCSc1nc2c(c(=O)[nH]1)C(C(C)C)C(C#N)=C(N)O2 (stereo not drawn) | 4%
CCCc1nc(NCc2ccco2)c(C#N)c2c1COC(C)(C)C2 | ?
O=C(CSc1nc(-c2ccccc2)cc(=O)[nH]1)NCc1ccc2c(c1)OCO2 | 3%
COc1ccc(N2CC(C(=O)NCCc3ccc(OC)c(OC)c3)CC2=O)cc1 (stereo not drawn) | -4%
Cc1ccc(OCc2nnc(SCC(=O)NC3CCCCC3)n2C)cc1 | 6%
Cc1ccc(S(=O)(=O)/N=C(/Nc2nc(C)cc(C)n2)N2CCOCC2)cc1 | ?
COc1ccc(-c2ccc(-c3noc(C(C)C)n3)c(OC)n2)cc1 | 32µM*
O=C(NCCCCNC(=O)c1cccnc1)c1cccnc1 | -5%
CCCNS(=O)(=O)c1ccc(OCC(=O)NCc2ccco2)cc1 | 1%
CCN=c1scc(-c2ccc3c(c2)NC(=O)CO3)n1N=C1CCCC1 | -17%
CC1CCc2nc(N)c(C#N)c(-c3cccnc3)c2C1 (stereo not drawn) | ?
CN(Cc1ccccc1)Cc1c(F)cccc1F | 5%
CS(=O)(=O)N(CC(=O)N1CCOCC1)c1ccc2c3c(cccc13)CC2 | 8%
CCc1ccc(N(CC(=O)NC2CCCCC2)S(=O)(=O)c2c(C)noc2C)cc1 | 5%
COc1ccc(OC)c(NC(=O)CSc2nnc(CNC(=O)COc3ccc(Cl)cc3)o2)c1 | -2%
CSc1nnc2c(n1)OC(C)=Nc1ccccc1-2 | 3%
COC(=O)c1ccc(NC(=O)CNC(=O)C2CCCCC2)cc1 | 4%
O=C1NC(c2ccccc2)(C(F)(F)F)C(=O)N1Cc1cccnc1 (stereo not drawn) | -1%
O=C(CN1CCCCC1)Nc1cccc(Cl)c1Cl | 5%
O=C(CN1CCN(c2ccccc2)CC1)Nc1ccc(-n2cnnn2)cc1 | -5%
O=C(CSc1nnc(-c2cccc(S(=O)(=O)N3CCCCC3)c2)o1)NCCC1=CCCCC1 | -4%
O=C(COC(=O)CCCNC(=O)c1ccc(Cl)cc1)NC1CC1 | 8%

Of the compounds above, three contain bromine:
SMILES | HSD17B inh
COc1cc(CN2CCN(c3cccc(C)c3C)CC2)cc(Br)c1O | -26%
O=C1C=CC2(OCCCO2)C(Br)=C1 | 8%[11.4 µM]
O=C(c1ccc(Br)o1)N(c1ccc(Br)cc1)C1C=CS(=O)(=O)C1 (stereo not drawn) | -5%

(list continues)
SMILES | HSD17B inh
COc1ccccc1C(=O)Nn1cnc2ccccc2c1=O | 7%
CCOc1nc(NCc2ccco2)nc(Nc2ccc(OC)cc2)n1 | 7%
Cc1cc(NC(=O)c2c(-c3ccccc3Cl)noc2C)no1 | 4%
CCCc1[nH]nc2c1C(c1ccncc1)C(C#N)=C(N)O2 (stereo not drawn) | -4%
COC(=O)[C@@]1(Cc2ccc(F)cc2)[C@H]2c3cc(C(=O)N(C)C)n(CC4CC4)c3C[C@H]2CN1C(=O)c1ccccc1 | -2%
COCCN1C(=O)C(=O)/C(=C(/O)c2cccc(OC)c2)C1c1ccco1 (stereo not drawn) | 0%
Cc1nnc(SCCn2c(Br)nc3c2c(=O)n(C)c(=O)n3C)s1 | -5%
COc1ccc(N(CC(=O)Nc2nccs2)S(=O)(=O)c2c(C)nn(C)c2C)cc1 | 0%
CCCC(=O)NCc1nc2ccccc2n1C | -4%
Cn1c(=O)c2c(nc(NCc3cccnc3)n2Cc2cccc(C(F)(F)F)c2)n(C)c1=O | 3%
NS(=O)(=O)c1nc(S(=O)(=O)O)c2[nH]cnc2n1 | -10%[11.4 µM]
Cc1ccccc1OCC(=O)Nc1ccc2c(c1)COC2=O | -5%
CCN(C(=O)CSc1nnnn1-c1cc(C)ccc1OC)C1CCS(=O)(=O)C1 (stereo not drawn) | 4%
COc1ccc(O)c(C(=O)c2cnc3onc(C)c3c2)c1 | -12%
CC(CCc1ccco1)NC(=O)c1cc2c(-c3ccccc3F)nn(C)c2s1 (stereo not drawn) | ?
CCN1C(=O)[C@H]2[C@H]3[C@H](O)[C@H](O)C/C(=N/OC[C@@H](C)[C@H](OCc4ccccc4)C(C)C)[C@@H]3CC[C@@H]2C1=O | 0%[11.4 µM]
COC(=O)c1c(C)nn(-c2ccccc2)c1N | 3%
O=C1CCCC=C1[C@@H](O)C1CCCCC1 | 1%[11.4 µM]
COc1ccc(-c2[nH]nc3c2C(c2ccncc2)C(C#N)=C(N)O3)cc1 (stereo not drawn) | 6%
CC1=C(C(=O)OCC2CCCO2)C(c2ccc(C)o2)C2=C(CC(c3ccc(F)cc3)CC2=O)N1 (stereo not drawn) | -6%
Cc1nccn1S(=O)(=O)c1ccc(Br)cc1Br | -5%
Nc1nnc(-c2cn(-c3ccccc3)nc2-c2ccccc2)o1 | 32µM*
CSc1nc(NC(C)(C)C)nc(N2CCOCC2)n1 | 3%
CCC(=O)N1c2ccccc2NC2=C(C(=O)CCC2)C1c1cccnc1 (stereo not drawn) | -22%
c1c(C2CCCCC2)n[nH]c1CN1CCCCC1 | 10%

Remaining list, next part.
SMILES | HSD17B inh
O=C(Nc1c(F)cc(F)cc1Br)C1CCCO1 (stereo not drawn) | -14%
O=C(NCCc1c[nH]c2ccccc12)c1ccc(-n2cnnn2)cc1 | -1%
O=C(c1cc2ncc(Br)cn2n1)N1CCN(C(=O)c2ccco2)CC1 | -16%
O=C(CN1C(=O)COc2ccccc21)N1CCCc2ccccc21 | 5%
CCCCCOC(=O)CSc1nnc(-c2ccccc2)c(=O)[nH]1 | -8%
Nc1nc(NC(=O)c2ccco2)nn1-c1ccccc1 | 8%
CCOC(=O)Nc1ccc2c(c1)N(C(=O)CCN1CCOCC1)c1ccccc1S2=O (stereo not drawn) | -6%
CN(C1CCCCC1)S(=O)(=O)c1ccc(NC(=O)c2ccc(Br)o2)cc1 | -3%
O=C(COC(=O)CCNS(=O)(=O)c1ccc2c(c1)OCCO2)NC1CCCc2ccccc21 (stereo not drawn) | 9%
Cc1ccccc1-c1nc(NC2CCNCC2)c2ccccc2n1 | -6%
COc1ccc(-c2nn(C)c(=O)c3ccccc23)cc1NC(=O)Cn1nc(C)c2ccccc2c1=O | ?
CCOC(=O)c1ccc(Nc2cc(C)nc(N3CCOCC3)n2)cc1 | 32µM*
O=C(COC(=O)c1ccccn1)Nc1cccc(Cl)c1Cl | 9%
CCOc1cc(S(=O)(=O)NCc2cccs2)ccc1Cl | 0%
c1ccc(CCn2nnnc2CN2CCCc3ccccc32)cc1 | -5%
CCOc1ccc2[nH]c(=O)c(CN(Cc3nnnn3Cc3ccco3)C3CCCCC3)cc2c1 | ?
CCOC(=O)COc1ccc(S(=O)(=O)N2CCN(C(=O)OCC)CC2)cc1 | -3%
Cc1cc(NC(=O)CSc2nc(-c3ccc(F)cc3)cs2)no1 | 6%
O=C(CN1C(=O)c2ccccc2C1=O)NCC1CCCO1 (stereo not drawn) | 4%
CCOc1ccc(NCC2CCOC(C)(C)C2)cc1 (stereo not drawn) | -20%
CCOC(=O)N1CCN(c2nc(-c3ccc(Cl)cc3)cs2)CC1 | -1%
CC(C)(C)NC(=O)CSc1nncn1NCc1ccccc1 | 2%
O=C(O)c1cccc(Cn2cccn2)c1 | 10%
CN(Cc1ccco1)c1ccnc(-c2ccccc2C(F)(F)F)n1 | 8%

Arranged by SMILES length (highest first): six of the compounds above.
SMILES | HSD17B inh
O=C(COC(=O)CCNS(=O)(=O)c1ccc2c(c1)OCCO2)NC1CCCc2ccccc21 (stereo not drawn) | 9%
CCOc1ccc2[nH]c(=O)c(CN(Cc3nnnn3Cc3ccco3)C3CCCCC3)cc2c1 | ?
CN(C1CCCCC1)S(=O)(=O)c1ccc(NC(=O)c2ccc(Br)o2)cc1 | -3%
CCOC(=O)c1ccc(Nc2cc(C)nc(N3CCOCC3)n2)cc1 | 32µM*
O=C(CN1C(=O)c2ccccc2C1=O)NCC1CCCO1 (stereo not drawn) | 4%
CCOc1cc(S(=O)(=O)NCc2cccs2)ccc1Cl | 0%
